# TDP1 cell CPT: DT40-hTDP1 cell growth loss with CPT | chicken DT40 Tdp1-/-;hTDP1 cells + 20 nM CPT, ATP luminescence, 48 h | Potency, µM (doses to about 46.2 µM), for the others: at the highest dose activity change, negative = growth inhibition, actives largely listed as inhibitors | 420,000 tested, 12% active | AID 686979; further: nearly all actives have a fitted effect of over 55% in size
#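 Chicken DT40 Tdp1-/- cells stably complemented with human TDP1 were seeded at 400 cells/well in medium containing 20 nM camptothecin, exposed to pin-transferred compounds, and grown at 37 °C for at least 48 hr. Viability was read as ATP luminescence.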
# N370S GC mod: inhibitors or activators of N370S glucocerebrosidase for Gaucher disease; N370S GC spleen homogenate, 4MU-glucoside fluorescence; 330,000 tested, 0.092% active; P04062; Potency, µM (top dose mostly 59.4 µM), for inactives: top-dose activity change, negative = inhibition, most hits filed as inhibitors;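 further: 0% = full enzyme activity and -100% = no enzyme basal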
# * marks the source's active call; other numbers are inactive results; ? = inconclusive; . = no result given; [ ] = remark or other dose. The call rests on the fitted dose curve; in most records, active means well fitted curve in the direction sought with a large enough effect; inconclusive means small, poorly fitted or top-dose-only effect, or another doubt; inactive means no such curve, though single readings can be large; an effect the other way counts as inactive or inconclusive. Unless noted, on the % scale 0 is the no-effect control and ±100 the full control effect; potency means the concentration at half of the fitted maximal effect. A portion of the library, and most or all hits are left out here.
Compound,TDP1 cell CPT,N370S GC mod
CCC1CCCCN1CCCNC(=O)c1cc2c(=O)[nH]c3ccccc3c2n1C (stereo not given),0%,3%
Cc1ccc(NC(=O)Cn2c(O)c(N=NC(N)=S)c3ccccc32)cc1,?,-4%
O=C(O)/C=C/C(=O)N1CCN(S(=O)(=O)c2cc(C(F)(F)F)ccc2Cl)CC1,1%,3%
COc1ccccc1NC(=S)NNC(=O)c1c(Cl)c(C)nn1C,?,2%
O=C(C1=C[C@@H](c2ccccc2)C[C@@H](OCc2ccc(CO)cc2)O1)N1CCN(Cc2ccc3c(c2)OCO3)CC1,18µM*,-28%
COc1ccc(Cl)cc1NC(=O)C(=O)N/N=C/c1cc(C)n(-c2ccc(C)cc2)c1C,?,1%
COc1ccc(OC)c(C(=O)N/N=C/c2ccccn2)c1,6%,-1%
CCOc1ccc(N2C(=O)CC(NCCc3ccc(S(N)(=O)=O)cc3)C2=O)cc1 (stereo not given),-11%,0%
CC(=O)c1c(C)[nH]c(C(=O)OCC(=O)N(C)c2c(N)n(Cc3ccccc3)c(=O)[nH]c2=O)c1C,2%,-4%
COc1cccc(-c2ccc(NC(=O)C3CCCN(Cc4cnc(C)s4)C3)cc2)c1 (stereo not given),?,-20%
COc1ccc(NS(=O)(=O)c2c(C)[nH]c(=O)[nH]c2=O)c(OC)c1,-14%,-1%
Cc1cc(C)c(NS(=O)(=O)c2ccc(Cl)c(C(=O)O)c2)c(C)c1,0%,5%
Cc1cc(C(=O)COC(=O)c2ccccc2Br)c(C)n1CC1CCCO1 (stereo not given),?,13%
CCCNC(=O)c1cnc(-c2ccccc2)nc1-c1ccccc1,-2%,2%
COc1ccc(C)cc1NC(=O)CNC(C)C(=O)Nc1ccc(C(C)=O)cc1 (stereo not given),0%,1%

# Another view of some results above:
# Values run as follows: TDP1 cell CPT	N370S GC mod
O=C(C1=C[C@@H](c2ccccc2)C[C@@H](OCc2ccc(CO)cc2)O1)N1CCN(Cc2ccc3c(c2)OCO3)CC1
→ 18µM*	-28%
CCCNC(=O)c1cnc(-c2ccccc2)nc1-c1ccccc1
→ -2%	2%
O=C(O)/C=C/C(=O)N1CCN(S(=O)(=O)c2cc(C(F)(F)F)ccc2Cl)CC1
→ 1%	3%
CCC1CCCCN1CCCNC(=O)c1cc2c(=O)[nH]c3ccccc3c2n1C (stereo not given)
→ 0%	3%

# (list continues)
Compound,TDP1 cell CPT,N370S GC mod
COC(=O)c1cccnc1NC(=S)NNC(=O)c1ccccc1,-5%,12%
CCCCCN=CC1=C(O)CC(c2ccccc2)CC1=O (stereo not given),10%,-15%
COc1ccc(/C=C/C(=O)Nc2ccccc2C(F)(F)F)cc1OC,15%,1%
CCCCN(CC)CCNC(=O)c1cc2c(=O)[nH]c3ccc(C)cc3c2s1,?,1%
COc1cc(/C=C/C(=O)N2CCCc3ccccc32)cc(OC)c1OC,?,9%
COCCCC1CCN(C(=O)c2cc(COc3cc(C)ccc3C)on2)CC1,?,-1%
COC(=O)c1ccc(NS(=O)(=O)N(C)C)cc1,6%,-11%
COc1cc(/C=C(\C#N)C(=O)Nc2cccc3ncccc23)cc(OC)c1OC,-27%,-2%
OCCNCCOc1ccc(Cl)c(Cl)c1,?,1%
O=C(COc1ccc(Cl)cc1Cl)Nc1ccc2nc3n(c(=O)c2c1)CCCC3,?,13%
O=C(c1ccccc1[N+](=O)[O-])N1CCN(Cc2ccc3c(c2)OCO3)CC1,-4%,7%
Cc1cc(C(=O)N/N=C/c2ccc3ccccc3c2)n[nH]1,?,-1%
COc1cccc(CN2CCNC(=O)C2CC(=O)N(C)C2CCOCC2)c1OC (stereo not given),-2%,-1%
O=C(NCCc1ccccc1)/C(=N\O)c1ccccc1,-1%,-11%
CC(C)c1ccc(NC(=O)CNC(=O)Cn2cnc3ccccc3c2=O)cc1,8%,-5%

# Look-ups from the entries so far:
# Value for `CCCCN(CC)CCNC(=O)c1cc2c(=O)[nH]c3ccc(C)cc3c2s1` under N370S GC mod: 1%
# Value for `COc1cccc(CN2CCNC(=O)C2CC(=O)N(C)C2CCOCC2)c1OC` (stereo not given) under TDP1 cell CPT: -2%
# Value for `CCCCCN=CC1=C(O)CC(c2ccccc2)CC1=O` (stereo not given) under TDP1 cell CPT: 10%

# Following part:
Compound,TDP1 cell CPT,N370S GC mod
Cc1ccc(NC(=O)/C=C/c2cccc(C(F)(F)F)c2)cc1,-1%,1%
CC1=CC(C)(C)NC(=S)N1c1ccc(C)cc1C,?,10%
O=C(CN1C(=O)NC2(CCCc3ccccc32)C1=O)N1CCN(C(=O)c2ccco2)CC1 (stereo not given),-4%,2%
O=C(Nc1cccc(F)c1)C1CCCN1S(=O)(=O)c1cccc2cccnc12 (stereo not given),18µM*,5%
CC(=O)NNc1cc(C)nc(NS(=O)(=O)c2ccc(C)cc2)n1,36%[activator],-6%
Cc1ccc(S(=O)(=O)N2CCN(CC(O)COc3ccccc3)CC2)cc1 (stereo not given),4%,-8%
Cc1ccc(CSC2=CS(=O)(=O)c3ccccc3N2)cc1,?,0%
N#C/C(=C\c1ccc(OCc2ccccc2)cc1)C(N)=O,?,-1%
CC1(c2ccc(OC(F)F)cc2)NC(=O)N(CC(=O)c2ccc3c(c2)OCO3)C1=O (stereo not given),-19%,-5%
O=C(c1ccc(Cl)cc1)c1c[nH]c(C(=O)C(Cl)(Cl)Cl)c1,12µM*,2%
Cc1cc(Cl)ccc1OC(C)C(=O)Nc1ccc(C(=O)Nc2ccccc2C(=O)O)cc1 (stereo not given),?,15%
COC(=O)C1=C(CN2CCN(C)CC2)NC(=O)NC1c1cc(C)ccc1C (stereo not given),-16%,7%
COc1ccc(Cc2noc(CN3CCN(Cc4cccc(Cl)c4)CC3)n2)cc1OC,?,4%
O=C(Nc1ccc(Cl)cc1Cl)NC1CCCC1,-18%,0%
O=C(OCC(=O)N1CCN(C(=O)c2ccco2)CC1)c1ccccc1Cc1ccccc1,?,7%
O=C1OC2(CCCC2)OC(=O)C1=Cc1c[nH]c2ccccc12,0%,1%
COc1cccc(-c2[nH]nc3c2C(c2ccc(C)o2)C(C#N)=C(N)O3)c1 (stereo not given),-17%,-1%[12.8 µM]
COc1ccccc1NC(=O)N(Cc1ccco1)Cc1cc2cccc(C)c2[nH]c1=O,16µM*,14%
CC1=C(C(=O)OCc2ccccc2)C(c2ccccc2Br)NC(=O)N1 (stereo not given),-2%,-11%
CCN(C(=O)CSc1nnc(-c2ccco2)n1Cc1ccccc1)C1CCS(=O)(=O)C1 (stereo not given),-16%,.
O=C(/C=C/c1ccc2c(c1)OCCO2)N1CCN(c2ccc(F)cc2)CC1,-24%,-11%
Cc1cc(C)c(C#N)c(OCC(=O)Nc2ccccc2)n1,29%,-4%
O=C(Cn1nnc2ccccc21)c1ccc(Cl)cc1,2%,0%
COC(=O)C1=C(C(=O)OC)N2C=CC=CC2(C)C(C(=O)OC)=C1C(=O)OC (stereo not given),-11%,1%
CC1CN(c2cnn(C(C)C)c(=O)c2Cl)CC(C)O1 (stereo not given),-10%,-13%
Cc1c(C(=O)N2CCN(c3ccc(F)cc3)CC2)sc2nc3n(c(=O)c12)CCC3,?,2%
O=C(N/N=C/c1ccco1)c1cc(-c2ccccc2)n[nH]1,?,-2%
Cn1c(SCC(=O)c2ccccc2)nnc1C1COc2ccccc2O1 (stereo not given),-20%,16%
CN(C)c1ccc(NC(=O)c2ccncc2)c2ccccc12,-1%,4%
COc1ccc(NC(=O)c2ccc(COc3ccc(C)cc3)o2)cc1,?,-4%

# New compounds follow
Structure | TDP1 cell CPT | N370S GC mod
Cc1ccc(C)c(C(=O)c2c(C)nc3sccn23)c1 | -11% | -9%[2.35 µM]
Cc1ccc(NC(=O)CSc2nnc(C3CC3)n2N)cc1S(=O)(=O)N1CCOCC1 | 14% | 2%
COc1ccccc1NS(=O)(=O)c1ccc(C)c(NS(=O)(=O)c2cc(C(=O)O)cc(C)c2C)c1 | -10% | -9%
CN(C)S(=O)(=O)c1cc(C(=O)NCCCn2ccc3ccccc32)ccc1Cl | ? | -2%
COc1ccc(C2NC(c3ccc(OC)cc3)C([N+](=O)[O-])C(C)(C)C2[N+](=O)[O-])cc1 (stereo not given) | -4% | 2%
O=c1cc(CSc2nnnn2-c2ccc(O)cc2)nc2sccn12 | -1% | 7%
COc1ccc2c(c1)[C@H]1[C@H](CO2)[C@H](c2ccccc2)[C@]2(C)C(=O)Nc3cc(Cl)ccc3C(=O)N12 | ? | 8%
Cn1cc(Cl)c(C(=O)NNC(=S)Nc2cccc(Cl)c2)n1 | 14% | 1%
COc1ccc(OC)c(NC(=O)Nc2cnccn2)c1 | -1% | -1%
O=C(CC(=O)Nc1ccc(F)cc1)Nc1ccc(F)cc1 | -9% | 0%
O=C(CSc1ncn[nH]1)c1cc2ccccc2o1 | 5% | -10%
COC(=O)c1cccc(S(=O)(=O)N2CCC(c3nc4ccccc4o3)CC2)c1 | 1% | 2%
CC1=CCC(C(C)(C)NC(=O)c2ccccc2)C/C1=N\O (stereo not given) | -15% | .
CCOc1cc(/C=C2/NC(=O)N(CC(=O)OC)C2=O)ccc1OC | 4% | -10%
Cc1cnc(NC(=O)CSc2ccccc2)s1 | ? | 1%
Cc1cccc(CSCC(=O)NCc2ccc(S(N)(=O)=O)cc2)c1 | 6% | 1%
COc1ccccc1C(=O)N/C(=C\c1ccc(Br)cc1)C(=O)NCCO | 5% | 3%
Cc1nc([N+](=O)[O-])c(Br)n1Cc1ccccc1 | 5.2µM* | -12%
Cc1ccc(CCNC(=O)CN2C(=O)COc3ccccc32)cc1 | -5% | 29%
O=C1NC2(CCCC2)C(=O)N1CCS(=O)(=O)Oc1ccccc1 | 11% | -3%
CC(=O)NS(=O)(=O)c1ccc(NC(=O)CCC2CCCC2)cc1 | 9% | 26%
O=C(c1ccc(NS(=O)(=O)c2ccc(F)cc2)cc1)N1CCCCCC1 | ? | -15%
Cc1ccc(NC(=O)N2CCCC2c2cccs2)cc1 (stereo not given) | 2% | -8%
N#Cc1c(-c2ccccc2)cc(-c2ccccc2)nc1SCC(=O)O | ? | 1%
N#CCCCCN1c2cccc3cccc(c23)S1(=O)=O | -5% | -15%
CCCn1cnc2cc(NC(=O)c3ccco3)ccc21 | -8% | 3%
O=C1NCCN(Cc2ccc(Cl)c(F)c2)C1CC(=O)N1CCCO1 (stereo not given) | -15% | -1%
COc1ccc(S(=O)(=O)N2CCOCC2)cc1NC(=O)c1ccc2c(c1)OCCO2 | ? | -6%
Cc1oc2cc3oc(=O)c4c(c3cc2c1C)CCC4 | 1% | 3%
CC(C)(C)c1ccc(-c2noc(CNC(=O)c3ccco3)n2)cc1 | -29% | 0%
CN1C(=O)NC(c2ccccc2)C2=C1CN(c1ccc3ccccc3c1)C2=O (stereo not given) | ? | -28%
COc1ccc(C(=O)Nc2ccc3c(c2)nc(CCNC(C)=O)n3C)cc1 | 3% | -13%
CCOC(=O)c1cc(-c2ccc([N+](=O)[O-])cc2)nc2c1c(=O)[nH]c(=O)n2Cc1ccccc1 | 7.3µM* | 4%
CCN(CC)S(=O)(=O)c1ccc(Cl)c(C(=O)OC2CC(C)OC2=O)c1 (stereo not given) | -17% | 0%
OCCN1CCN(CCCc2c3c(cc4c2CCC4)CCC3)CC1 | ? | -26%
O=C(/C=C/c1ccco1)N1CCN(S(=O)(=O)c2ccc(F)c(F)c2F)CC1 | -6% | 3%
Cc1cccc(NC(=O)CN2CCN(C(=O)c3ccc(-c4nc5ccccc5s4)o3)CC2)c1C | ? | -21%
O=C(OCc1ccc(F)cc1)c1ccc2ccccc2n1 | -2% | 6%
COC(=O)c1ccc(CSCC(=O)Nc2ccccc2)cc1 | -1% | 3%
Cc1cc2oc(=O)cc(CN3CCOCC3)c2c(C)c1Cl | -8% | 0%
O=C(CCNC(=O)C1CCN(S(=O)(=O)c2ccccc2)CC1)NCc1ccc(Cl)cc1Cl | 21µM* | -5%
CCc1c(C)nc(N2CCN(c3ccccc3F)CC2)[nH]c1=O | ? | -10%
COc1ccc(CCNC(=O)CNCCc2ccc(F)cc2)cc1 | -19% | -16%
O=C(COC(=O)c1n[nH]c2ccccc12)NCc1ccccc1 | -14% | 4%
Cc1ccc(Oc2ncccc2CO)cc1 | -2% | 8%
COc1ccccc1CNC(=O)CSc1ccc(-c2ccccn2)nn1 | -27% | -16%
Cc1ccc(S(=O)(=O)N2CCCC(C(=O)Nc3ccc(C(=O)O)cc3)C2)cc1Cl (stereo not given) | -5% | -7%
CCN(CC)S(=O)(=O)c1ccc2c(c1)N(CC(=O)NCCc1ccc(S(N)(=O)=O)cc1)C(=O)CO2 | -11% | -29%
Cc1cc(-c2n[nH]c(=S)n2/N=C/c2c[nH]c3ccccc23)n[nH]1 | 3% | -6%
COc1ccc(NC(=O)COC(=O)c2ccc3c(c2)OCCO3)cc1OC | -28% | .
CCOC(=O)C1=C(C)NC(=O)N(C(C)=O)C1c1ccc(Cl)cc1 (stereo not given) | ? | -3%
O=C(Oc1cc(-c2ccccc2)no1)c1ccc(F)cc1 | -3% | -7%
O=C1c2sc3nc4n(c(=O)c3c2CCC1Br)CCCCC4 (stereo not given) | 3.3µM* | -13%
CCN(C(=O)COC(=O)c1ccc(C)c(S(=O)(=O)N2CCOCC2)c1)C1CCS(=O)(=O)C1 (stereo not given) | -9% | -8%
N#Cc1ccc(CSc2nnc(-c3ccncc3)n2CCc2ccccc2)cc1 | -27% | -8%[2.35 µM]
C/C(=N/NS(=O)(=O)c1cc(C)ccc1C)c1c[nH]c2ccccc12 | ? | -7%

# Screens from PubChem.
